Screens (PubChem BioAssay)
2A Renilla: Primary qHTS Assay for Foot and Mouth Disease Virus Antivirals against NCGC Sytravon and CBC Compound Libraries: Renilla Luciferase Signal. HEK cells with a luciferase reporter of 2A StopGo recoding. Potency, µM (top dose mostly 57.5 µM), inactives show at the top dose signal change, negative = less light. actives 0.32% (n = 120,000). AID 1745857, 2022; active means well fitted falling curve with a large enough effect; inconclusive means small, poorly fitted or top-dose-only effect; inactive means no such curve, though single readings can be large or run the other way; also: nearly all actives have a fitted effect of over 55% in size; overnight with compound
StopGo FLuc: Primary qHTS Assay for Foot and Mouth Disease Virus Antivirals against NCGC Sytravon and CBC Compound Libraries: Firefly Luciferase Signal | actives 0.23% (n = 120,000) | HEK cells with a luciferase reporter of 2A StopGo recoding | Potency, µM (titrated, usually from 57.5 µM), for inactives: top-dose signal change, negative = less light | AID 1745856, 2022; active = well fitted falling curve with a large enough effect; inconclusive = small, poorly fitted or top-dose-only effect; inactive = no such curve, though single readings can be large or run the other way; also: nearly all actives have a fitted effect of over 60% in size; overnight with compound
Starred values were filed as active, the others as inactive; ? = inconclusive; [ ] = another dose, or the depositor's remark. % is scaled to controls: 0 for no effect and ±100 for the full control effect; potency is read from the fitted curve at half-maximal effect. Not all compounds are listed; rates above refer to the full screens.

SMILES	2A Renilla	StopGo FLuc
COc1ccc(-n2ccnc(NCc3ccc(Cl)cc3)c2=O)cc1	?	?
O=C(Cc1ccc(Cl)cc1Cl)Oc1ccccc1Cc1ccccc1	4%	13%
C#CCOC(=O)C[N+](C)(C)C/C=C(/C)Cl	-6%	-10%
COc1ccc(/C=C(/CCCC(=O)O)c2nc3ccccc3s2)cc1C	51%[activator]	?
CN(Cc1ccccc1)S(=O)(=O)c1cccc(Br)c1	86%[activator]	-4%
COC(=O)c1c(-c2ccccc2)csc1NC(=O)CN1CCOCC1	?	?
O=C(NC1CCSC1=O)c1ccco1 (stereo not given)	12%	13%
Cc1ccc(-c2cc(C(=O)N3CCOCC3)n[nH]2)s1	-22%	165%[activator]
COCC(C)NC(=O)c1ccc(OC)c(S(=O)(=O)NC(C)C)c1 (stereo not given)	30%[activator]	-5%
Cc1cccc(NC(=O)N2CC=C(c3c[nH]c4ccccc34)CC2)c1C	-9%	88%[activator]
CC(=O)Nc1nonc1-c1nnc(SCc2ccc(F)cc2Cl)n1C	4%	37%[activator]
Cc1ccc(C)n1-c1nnc(N2CCCC(C(=O)NCc3ccccc3)C2)s1 (stereo not given)	-5%	0%
O=C(NCC1CCC1)c1ccccc1Nc1ccccc1	-3%[1.06 µM]	9%
CCN(C(=O)CSc1ncc(S(=O)(=O)c2ccc(C)c(Cl)c2)c(=O)[nH]1)c1cccc(C)c1	4%	-8%
COc1cc(C(CC(=O)Nc2ccccc2)N2Cc3ccccc3C2=O)cc(OC)c1OC (stereo not given)	192%[activator]	13%
O=c1c2ccccc2cnn1CN1CCN(S(=O)(=O)c2cccc(Cl)c2Cl)CC1	4%	8%
CN(C(=O)COc1ccccc1F)c1c(N)n(Cc2ccccc2)c(=O)[nH]c1=O	-16%	-15%
CC1CCN(C(=O)COC(=O)CCc2c[nH]c3ccccc23)CC1	-10%	2%
CCn1c(SCC(=O)OC)nc2c1c(=O)n(C)c(=O)n2C	-2%	0%
COc1cc([N+](=O)[O-])cc2cc(C(=O)NC3CCCCCC3)c(=O)oc12	-10%	-5%
CCOc1ccc(-c2cc3nc(C4CCN(C(=O)OC(C)(C)C)CC4)c(C(=O)Nc4ccc(C(=O)OC)cc4)cn3n2)cc1	-12%	-7%
C[C@H](NS(=O)(=O)/C=C/c1ccccc1)C(=O)OCC(=O)c1c[nH]c2ccccc12	-14%	-9%
CNCCc1ccccn1	-5%	-8%
CCN(CC)S(=O)(=O)c1ccc2c(c1)N(CC(=O)Nc1ccc(C)cc1C)C(=O)C1CCCN21 (stereo not given)	9%	1%
CCCCc1ccc(Nc2ncnc3c2cnn3-c2ccccc2)cc1	0%	0%
O=C(c1cn[nH]c1-c1ccc(Cl)cc1)N1CCC2(CC1)OCCO2	18%	9%
CCOc1ccc(/C=C/c2nc(C#N)c(N3CCCCC3)o2)cc1	-2%	1%
Cc1ccc2[nH]c(C)c(CCNC(=S)NC(C)(C)C)c2c1	7%	?
Cn1nnnc1-c1cccc(NCC(=O)NC2(C#N)CCCCC2)c1	26%	-14%
CCOC(=O)c1c(NC(C)=O)sc2c(OCC(=O)Nc3ccccc3C)c(C)ccc12	11%	19%
COc1ccc(CCNC(=O)CC2Sc3ccccc3NC2=O)cc1 (stereo not given)	-5%[1.06 µM]	0%
Cc1c(-c2ccccc2)oc2c(C(=O)N3CCN(CCC(C)C)CC3)cccc2c1=O	3%	-11%
CCOc1cccc(-c2cc(C(=O)O)c3cccc(C)c3n2)c1	0%	14%
CCOc1ccc(CCNC(=O)C2CC(=O)N(CCc3ccc(OC)c(OC)c3)C2)cc1OCC (stereo not given)	2%	-13%
CCOc1ccccc1NC(=O)CSc1nnc(Cc2cccn2C)n1-c1ccc(F)cc1	36%[activator]	-18%
N#Cc1ccc(S(=O)(=O)N2CCN(c3nc(-c4cccnc4)nc4ccccc34)CC2)cc1	18%	18%
COc1ccc(NC(=O)C(c2ccc(OC)cc2)N(Cc2ccco2)C(=O)Cc2cccs2)cc1 (stereo not given)	77%[activator]	6%
CCC(=O)N1CCc2cc(S(=O)(=O)NC(CC(C)C)C(=O)Nc3cc(C)ccc3OC)ccc21 (stereo not given)	-4%	-12%
COc1ccc(CCNC(=O)CSc2cc(=O)n(C)c3ccccc23)cc1OC	-11%	-5%
CCCSc1ncc(Cl)c(C(=O)N(Cc2cccc(Cl)c2)C2CCS(=O)(=O)C2)n1 (stereo not given)	13%	72%[activator]
CCc1ccc(-n2nc3cc(C)c(NC(=O)c4cc(Cl)ccc4OC)cc3n2)cc1	-7%	21%
COC(=O)C1C(=O)CC(C)(O)C(C(=O)OC)C1c1ccc(Br)cc1 (stereo not given)	-3%	8%
CCCNC(=S)NNC(=O)CCC	0%	-1%
COc1ccc(C(=O)Oc2ccc(Br)cc2)cc1OC	1%	20%
CCOc1ccccc1NC(=O)C1=C(C)Nc2ncnn2C1c1ccc(C)o1 (stereo not given)	-13%	-14%
N#CCC(=O)Nc1ccc(Oc2ccccc2)cc1	16%	15%
CC(=O)c1cccc(NC(=O)c2ccc3nc(Cc4ccccc4)oc3c2)c1	-12%	16%
CCOc1cccc(C2c3[nH]c4ccccc4c3CCN2C(=O)CCc2ccccc2)c1 (stereo not given)	-13%	?
O=C(CSc1ncc2c(n1)-c1ccccc1N(Cc1ccccc1)S2(=O)=O)Nc1ccccc1	-12%	-4%
CCCCC(CC)COC(=O)c1ccc(N(C)C)cc1 (stereo not given)	-7%	-14%

Single records (already shown).
Profile of `CC(=O)Nc1nonc1-c1nnc(SCc2ccc(F)cc2Cl)n1C` = 2A Renilla = 4%; StopGo FLuc = 37%[activator]
Profile of `CCCSc1ncc(Cl)c(C(=O)N(Cc2cccc(Cl)c2)C2CCS(=O)(=O)C2)n1` (stereo not given) = 2A Renilla = 13%; StopGo FLuc = 72%[activator]

Remaining list, next part:
SMILES	2A Renilla	StopGo FLuc
O=C(c1ccc(OCc2cscn2)cc1)N1CCN(C2CCS(=O)(=O)C2)CC1 (stereo not given)	1%	0%
NC(CO)c1cccc2ccccc12 (stereo not given)	23%	3%
O=C(Nc1ccccc1)c1ccc2nsnc2c1	-10%	138%[activator]
Cc1cc(F)ccc1NC(=O)C1CCN(c2nc3ccccc3o2)CC1	-28%	-25%
CCN1CCN(c2ncc3c(n2)CCN(Cc2cccc(F)c2F)C3)CC1	20%	-3%
CSc1ccc(/C=C/C(=O)Nc2cc(Cl)ccc2C)cc1	3%	0%
COc1cc(NC(=O)CSc2ccc(-c3sc(C)nc3C)nn2)cc(OC)c1	?	?
Cc1ccc(-c2nnc(Nc3ccc(O)cc3)c3ccccc23)cc1S(=O)(=O)NCC1CCCO1 (stereo not given)	-5%	-8%
O=C(O)/C=C/c1cc(C(F)(F)F)ccc1Cl	2%	11%
O=C(OCc1cc(-c2ccco2)on1)c1cc2c(F)cccc2s1	0%	1%

Pulled by structure from the list above (5):
SMILES	2A Renilla	StopGo FLuc
COc1cc(NC(=O)CSc2ccc(-c3sc(C)nc3C)nn2)cc(OC)c1	?	?
Cc1ccc(-c2nnc(Nc3ccc(O)cc3)c3ccccc23)cc1S(=O)(=O)NCC1CCCO1 (stereo not given)	-5%	-8%
O=C(OCc1cc(-c2ccco2)on1)c1cc2c(F)cccc2s1	0%	1%
CSc1ccc(/C=C/C(=O)Nc2cc(Cl)ccc2C)cc1	3%	0%
O=C(Nc1ccccc1)c1ccc2nsnc2c1	-10%	138%[activator]

(cont.)
SMILES	2A Renilla	StopGo FLuc
CCOC(=O)c1ccc(NS(=O)(=O)c2ccc(-c3cc(C)no3)cc2)cc1	46%[activator]	-11%
CCCn1c(SCc2cc(=O)oc3c(C)c(C)ccc23)n[nH]c1=O	37%	13%
COc1ccc2c(CN(C)CCOc3ccccc3Cl)cc(=O)oc2c1	20%	32%[activator]
CCC(Sc1nc2ccccc2c2nc(CCc3c(C)n[nH]c3C)nn12)C(=O)Nc1ccc(F)cc1 (stereo not given)	-11%	-17%
CN(Cc1ccc(Cl)s1)C(=O)CSc1nnc(COc2ccccc2Cl)n1C	229%[activator]	5%
Cc1csc(NC(=O)c2ccc(Oc3cccc(Br)c3)nc2)n1	?	-27%
COc1ccc(C(C)=O)cc1COC(=O)c1c(Cl)cccc1Cl	122%[activator]	9%
COc1ccccc1NC(=O)/C=C/c1ccc2ccccc2n1	?	137%[activator]
CCOc1ccc2nc(Nc3nc(C)c(CCC(C)C)c(=O)[nH]3)nc(C)c2c1	-4%	11%
Cc1cc(NC(=O)c2ccc(F)cc2)ccc1-c1cc2ccccc2oc1=O	-10%	-8%
COc1ccc2c(C)c(CCC(=O)N3CCC(O)CC3)c(=O)oc2c1	33%[activator]	160%[activator]
COc1ccc(CNCCC(c2ccc3c(c2)OCO3)c2ccccc2OC)cc1 (stereo not given)	33%[activator]	-13%
Cc1nn(-c2ccc(N3CCOCC3)nn2)c(C)c1CCC(=O)Nc1ccc(F)cc1F	5%	18%
C[N+](C)(CCCCCCCCCC[N+](C)(C)C1CCCCC1)C1CCCCC1	3%	2%
COc1ccc(CCNC(=O)CSc2nc3ccccc3nc2Cc2ccc(Cl)cc2)cc1OC	-3%	7%
COc1cc(NC(=O)CSc2nc(C)c(C(=O)Nc3ccccc3)c(-c3ccc(OC)c(OC)c3)c2C#N)c(OC)cc1Cl	-8%	-7%
CSCCC(NS(=O)(=O)c1ccc2c(c1)oc(=O)n2C)C(=O)N1CCN(c2cccc(Cl)c2)CC1 (stereo not given)	12%	-15%
COc1ccc(N2CCN(C(=O)Cn3ncc4c3-c3cc(C)ccc3OC4)CC2)cc1	10%	-6%
Cc1cc(C)n(-c2nc3ccccc3nc2N2CCN(S(=O)(=O)c3ccc4ccccc4c3)CC2)n1	3%	4%
O=C(CCc1nc(-c2cccs2)no1)Nc1ccccc1[N+](=O)[O-]	-9%	2%
CCc1ccc(NC(=O)CSc2nccn2-c2ccc(OC)cc2)cc1	-20%	-9%
CC1CN(C(=O)CCC(=O)NCc2ccc(F)cc2)c2cc(Cl)ccc2O1 (stereo not given)	-1%	12%
Cc1c(C(=O)Nc2ccccc2C(N)=O)sc2nc(-c3ccc(F)cc3)cn12	5%	20%
CC(=O)Nc1ccc(NC(=O)CC2C(=O)Nc3nc(-c4ccccc4)nn32)cc1 (stereo not given)	5%	9%
COc1cccc(CNC(=O)c2ccc(CNC(=O)OC(C)(C)C)cc2)c1	12%	14%
COc1ccc(-c2nc3sc(CCNC(=O)c4ccc(Br)o4)c(C)n3n2)cc1	41%[activator]	401%[activator]
Cc1c(Cl)cccc1NC(=O)CSc1ncnc2c1sc1ccccc12	-6%	-5%
O=C(NCCNCc1c[nH]c2ccccc12)c1cccs1	-11%	-7%
Cc1nc2ccccc2n1CCc1nc2c3ccccc3nc(SCc3ccc(F)cc3)n2n1	?	?
Cc1cc(-n2c(=O)c3sccc3n(CC(=O)NC3CCc4ccccc43)c2=O)ccc1F (stereo not given)	-5%	11%
COc1cccc(C2=NOC(C(=O)Nc3cc(C)nn3-c3ccccc3)C2)c1OC (stereo not given)	30%[activator]	23%
COc1ccc(CNC(=O)c2cc(-c3ccc(Br)s3)nc3ccccc23)c(OC)c1	-3%	-10%
O=C(CSc1nc2ccc(NC(=O)C34CC5CC(CC(C5)C3)C4)cc2s1)Nc1ccc(F)cc1	?	80%[activator]
CC(=O)c1ccc(N2CCN(C(=O)CCc3ncc(-c4ccccc4)o3)CC2)c(F)c1	-11%	1%
Cc1ccc(OCc2ccc(-c3nc(C#N)c(NC4CC4)o3)o2)cc1C	4%	78%[activator]
O=C(CSc1ccc2ccccc2c1)OCC(=O)c1ccc2c(c1)OCCO2	3%	7%
CN(CC(=O)Nc1cccc(F)c1)C(=O)CCc1ncc(-c2ccc(Cl)cc2Cl)o1	2%	52%[activator]
CCC1CSC(Nc2ccc(C)cc2C)=N1 (stereo not given)	13%	0%
Cc1cc(C)c2c(C)c(C(=O)Nc3cccc4cccnc34)oc2c1	-1%	4%
CCCCC(=O)Nc1cc2nn(-c3ccc(OCC)cc3)nc2cc1C	3%	29%
Cc1cccc(OCc2nnc(SCc3ccc(Cl)c(Cl)c3)n2C)c1C	10%	8%
COc1ccc(C)cc1NC(=O)c1ccc2nc(Cc3ccccc3)oc2c1	60%[activator]	-19%
COC(=O)[C@]12C[C@H](CC(=O)N3CCC(c4ccccc4)CC3)C(=O)N(Cc3ccco3)C1=C[C@H](COCc1ccccc1)O[C@@H]2C	59%[activator]	-3%
COc1cc(/C=C(/C#N)C(=O)Nc2cccc3ncccc23)cc(OC)c1OC	-4%	1%
O=C1COc2ccc(C(=O)CSc3nnc(-c4cccc(Cl)c4)o3)cc2N1	6%	18%
Cc1ccc(C)c(Cn2cnc3c(cnn3-c3ccc(F)cc3)c2=O)c1	-2%	-15%
O=c1cc(-c2ccccc2)c2ccc(OC/C=C/c3ccccc3)cc2o1	18%	25%
COCCNc1ncnc2c1cnn2-c1cc(Cl)ccc1C	-3%	-10%
NCCOc1ccc(OCCN)cc1	-4%	3%

A draw from above in order of count of non-hydrogen atoms, lowest first:
SMILES	2A Renilla	StopGo FLuc
COCCNc1ncnc2c1cnn2-c1cc(Cl)ccc1C	-3%	-10%
Cc1ccc(C)c(Cn2cnc3c(cnn3-c3ccc(F)cc3)c2=O)c1	-2%	-15%
O=C1COc2ccc(C(=O)CSc3nnc(-c4cccc(Cl)c4)o3)cc2N1	6%	18%
